YjeE inh = displaces an ADP probe from E. coli YjeE (TsaE) | actives 0.05% (n = 71,000) | purified YjeE, fluorescence polarisation of a bound ADP probe | P0AF67 | Potency, µM; active = well fitted falling curve; inconclusive = weaker or top-dose-only fall, or a rising curve; inactive = flat or poorly fitted curve;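 further: top concentration of the series not given in the record; excess ADP was the control for the full effect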
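Fluorescence polarization of a BODIPY Texas Red–ADP probe (2 uM) bound to purified YjeE (10 uM) was read after 15 min room-temperature incubation with compounds. Loss of polarization marks inhibitors; ADP serves as titrated control.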
PK Bst = alters activity of Bacillus stearothermophilus pyruvate kinase. partly purified Bacillus stearothermophilus pyruvate kinase, luminescence ATP production; ribose 5-phosphate activator present at AC10. actives 1.2% (n = 51,000). Potency, µM. AID 361; in the data active means potency below about 11 µM; inconclusive means mostly about 12 µM to 25 µM; inactive means weaker than that;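 the screen sought inhibitors and activators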;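 further: potency means the concentration at half of the fitted maximal effect; scaled between full activation by ribose 5 phosphate and full inhibition by luteolin; about four in five hits inhibit and the cells do not say which; series up to 57 µM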
* = called active by the depositor; i = inactive; ? = inconclusive; / = no result given.

SMILES | YjeE inh | PK Bst
CC(C)CC(NC(=O)COc1ccccc1)C(=O)O (stereo not drawn) | i | >57
CC(C)Nc1nc(N(c2ccccc2)c2ccccc2)nc(-n2ccnc2)n1 | i | >57
CC(=O)N=c1sc2ccccc2n1C | i | /
Cc1ccccc1CS(=O)(=O)CCC(=O)N1CCN(c2ccc(N3CCOCC3)nn2)CC1 | i | >57
CCOC(=O)Cn1cnc2c(cnn2-c2ccc(Cl)cc2)c1=O | i | ?
CCn1nc(C(=O)OCC(=O)c2c[nH]c3ccccc23)c2ccccc2c1=O | i | /
Cc1ccc2c(COC(=O)c3cnc(C)cn3)cc(=O)oc2c1 | i | >57
Nc1cc(=O)[nH]c(SCCNS(=O)(=O)c2ccccc2)n1 | i | >57
O=C(CSc1nc2ccccc2[nH]1)NCCN1CCCCC1 | i | >57
CCCN(S(=O)(=O)c1ccc(OCC)cc1)S(=O)(=O)c1cccs1 | i | >57
O=C1CC(N2CCCN(C3CC(=O)N(c4ccc(F)cc4)C3=O)CC2)C(=O)N1c1ccc(F)cc1 (stereo not drawn) | i | >57
O=C(COC(=O)c1cccs1)c1ccc2c(c1)OCCO2 | i | 0.29*
CCNC(=O)C1CC(=O)N(CC)C(=Nc2cc(Cl)c(O)c(Cl)c2)S1 (stereo not drawn) | i | >57
Cc1ccc(S(=O)(=O)c2c(N)n(CC3CCOC3)c3nc4ccccc4nc23)cc1 (stereo not drawn) | i | >57
O=S(=O)(O)CCN1CCOCC1 | i | >57
CCOC(=O)C1=C(c2ccccc2)NC(SCC(=O)NC2CCCCC2)=C(C#N)C1c1ccco1 (stereo not drawn) | i | >57
O=C(O)COc1cccc(NC(=O)C2CCCO2)c1 (stereo not drawn) | i | >57
COc1ccc(C)cc1S(=O)(=O)N1CCN(c2cccc(C(F)(F)F)c2)CC1 | i | >57
CC(C)CCn1c(N)c(S(=O)(=O)c2cccs2)c2nc3ccccc3nc21 | i | >57
O=C(CCCC(=O)N1CCc2ccccc21)N1CCc2ccccc21 | i | >57
O=C(O)c1coc2ccccc12 | i | >57
COc1cc2c(cc1OC)C(c1cccs1)NCC2 (stereo not drawn) | ? | >57
CC(C)COc1nc2ccccc2nc1C(C#N)C(=O)NC1CCCCC1 (stereo not drawn) | / | >26
CCCCC(=O)Nc1cccc(-c2nn3c(C)nnc3s2)c1 | i | >57
COc1cc(C(=O)N(Cc2cc3ccccc3[nH]c2=O)CC2CCCO2)cc(OC)c1OC (stereo not drawn) | i | >57
COc1ccc(C2/C(=C(/O)c3ccccc3)C(=O)C(=O)N2c2ncccn2)cc1OC (stereo not drawn) | / | >26
CC1(C)CC2CC(C)(CN2C(=O)CCCN2C(=O)c3ccccc3C2=O)C1 (stereo not drawn) | i | /
Cc1cc(C)cc(OCc2nnc(SCC(=O)Nc3ccccc3)o2)c1 | i | >57
CC1(C)CC(=O)C=C(Nc2cc(-c3ccccc3)[nH]n2)C1 | i | /
Cc1ccccc1C(=O)NC1CCN(Cc2nnnn2Cc2ccc(F)cc2)CC1 | i | >57
O=C(CC1Sc2ccccc2NC1=O)Nc1cccc(C(=O)O)c1 (stereo not drawn) | i | /
N/C(=N\c1nc2c(c(=O)[nH]1)CCCC2)Nc1ccccc1 | i | /
O=C(Cc1cc(=O)[nH]c(=O)[nH]1)N1CCC(Cc2ccccc2)CC1 | i | /
CSc1cccc(NC(=O)CSc2nnc(C)s2)c1 | i | >57
COc1ccc(-n2ncc3c(NCc4cccs4)ncnc32)cc1 | i | /
O=C(COC(=O)c1ccc(S(=O)(=O)Nc2ccccc2)cc1)NCCN1C(=O)CSC1=O | i | >57
CN/S(=N/S(=O)(=O)c1ccccc1)c1ccc(C)cc1 (stereo not drawn) | i | >57
COc1ccc2nc(-c3ccccc3)[nH]c2c1 | i | 6*
Cc1ccc(C(=O)Nc2cccc(C(=O)NCc3ccco3)c2)cc1 | i | /
Cc1nnc(N(CCC#N)CCC#N)s1 | i | >57
COc1nc(Nc2cccc(C(F)(F)F)c2)nc(OC)n1 | i | >57
Nc1nc(Nc2cccc3ccccc23)nc(C2CCCC2=O)n1 (stereo not drawn) | i | /
O=C(NC12CC3CC(CC(C3)C1)C2)N1CCN(C(=O)C2CCCO2)CC1 (stereo not drawn) | i | >57
CN(C)Cc1ccccc1-c1nc(N(C)C)c2ccccc2n1 | i | /
CC(C)(C)C(=O)OCC1OC(n2cnc(C(N)=O)n2)C(O)C1O (stereo not drawn) | i | >57
COC(=O)[C@@]1(Cc2ccc(OC)cc2)[C@H]2c3cc(C(=O)N4CCCC4)n(Cc4ccc(Cl)c(C(F)(F)F)c4)c3C[C@H]2CN1C(=O)c1ccccc1 | i | /
CCC(=O)N1c2ccc(S(=O)(=O)CCC(=O)NCc3ccc4c(c3)OCO4)cc2CC1C (stereo not drawn) | i | >57
COC(=O)CCC(NC(=O)c1cc(-c2ccc3c(c2)OCCO3)oc1C)C(=O)OC (stereo not drawn) | i | /
Cc1ccc(C2C(C(=O)c3sc(C)nc3C)=C(O)C(=O)N2CCCN(C)C)o1 (stereo not drawn) | i | >57
CCOC(=O)Cc1c(C)nc2c(-c3cccc(Br)c3)c[nH]n2c1=O | i | /
COC(=O)c1ccc(C(NC(=O)OCc2ccccc2)/C(=C/[C@@H](C)C(=O)NCc2cc(F)cc(F)c2)c2cccnc2)cc1 (stereo partly drawn) | i | /
C=CCNC(=O)CN(c1ccc(F)cc1)S(=O)(=O)c1ccc(OC)cc1 | i | >57
CCOc1ccc2nc(C(C)O)[nH]c2c1 (stereo not drawn) | i | >57
Cc1cccc(N2C(=O)SC(N(CC(=O)O)c3cccc(C)c3)C2=O)c1 (stereo not drawn) | i | /
O=C(O)CCc1ccc(-c2cccs2)n1CCC(=O)O | i | >57
CN1CCN(c2c3c(c(C#N)c4nc5ccccc5n24)CCCC3)CC1 | / | >26
CN(C)CCNc1oc(COc2ccc(-c3ccccc3)cc2)nc1C#N | i | /
CCC(C)NC(=O)C1CCCN(S(=O)(=O)c2ccc(-n3cnnn3)cc2)C1 (stereo not drawn) | i | >57
Cc1ccc2c(c1)cc(CN(Cc1cccs1)C(=O)c1ccco1)c1nnnn12 | i | >57
CCn1c(Cn2nnc(-c3ccccc3)n2)nnc1SCC(=O)Nc1ccc(C(C)=O)cc1 | i | >57
(next part)
SMILES | YjeE inh | PK Bst
CCOc1ccc(N2C(=O)C3CCCN3C2=O)cc1 (stereo not drawn) | i | >57
CC1=CCC(COC(=O)Nc2ccccc2)CC1 (stereo not drawn) | i | >57
CC(C)OCCCN1CN(S(=O)(=O)c2ccccc2)c2nc3ccccc3nc21 | i | >57
Cc1cc(C)c(NC(=O)CSc2nnc(-c3ccncc3)n2Cc2ccco2)c(C)c1 | i | >57
O=S(=O)(NC1CC1)c1ccc(S(=O)(=O)N2CCCC3(CCCCC3)C2)cc1 | i | >57
COCCn1c(-c2ccc(-c3ccccc3Cl)o2)nc2c1c(=O)[nH]c(=O)n2CC(C)C | i | >57
COc1ccc2c(c1)[nH]c1c(=O)n(CCN(C)C)cnc12 | / | >26
CCCCC(=O)Nc1ccc2oc(-c3ccncc3)nc2c1 | i | /
Cn1ncc2c(NCc3ccccc3)ncnc21 | i | >57
COCCn1nnnc1C(CC(C)C)N1CCN(c2cccc(OC)c2)CC1 (stereo not drawn) | i | >57
CC(=O)Nc1ccc(C(=O)Nc2ccc(S(=O)(=O)N3CCCC3)cc2)cc1 | i | /
COc1ccc(CC(NC(=O)c2ccccc2)C(=O)NCC(=O)O)cc1 (stereo not drawn) | i | /
O=c1c2ccccc2n(Cc2ccc(F)cc2)c(=O)n1C1CCCC1 | i | >57
O=C(CCc1ccccc1)Nc1ccc(N2CCOCC2)cc1 | i | /
Cc1cc(O)c(-c2n[nH]c3c2C(c2cccc(O)c2)N(Cc2cccnc2)C3=O)cc1Cl (stereo not drawn) | i | >57
CCn1c(SCC(=O)OCC(=O)N2c3ccccc3NC(=O)C2(C)C)nnc1-c1ccco1 | i | >57
CCSc1ccc2c(c1)N(CCCN1CCN(C)CC1)c1ccccc1S2 | i | /
O=C1Nc2ccccc2[C@]1(O)Cc1ccccn1 | i | /
O=c1[nH]c2cc3c(cc2cc1C(c1nnnn1C1CCCC1)N1CCCc2ccccc21)OCCO3 (stereo not drawn) | i | >57
Cc1c(S(=O)(=O)N2CCc3ccccc3C2)c(=O)n(C)c(=O)n1C | i | /

A different layout for 2 compounds above:
canonical_smiles,YjeE inh,PK Bst
Cc1cc(C)c(NC(=O)CSc2nnc(-c3ccncc3)n2Cc2ccco2)c(C)c1,i,>57
Cn1ncc2c(NCc3ccccc3)ncnc21,i,>57

The list goes on.
SMILES | YjeE inh | PK Bst
COc1ccc(-c2nn(-c3ccccc3)cc2/C=N/n2cnnc2)cc1OC | i | /
Cc1nn(C)c(C)c1S(=O)(=O)N1CCC(C(=O)NCCC2=CCCCC2)CC1 | i | /
CC(C)(C)NS(=O)(=O)c1ccc(CCC(=O)N2CCOCC2)cc1 | i | >57
CCOC(=O)CSC1=C(C#N)C(C)C2=C(CCCC2=O)N1 (stereo not drawn) | i | >57
CCCCCCCCCCCCC/C=C\[C@H](O)[C@H](N)CO | i | /
CCOC(=O)N1CCN(C(=O)c2oc3ccc(S(=O)(=O)N4CCOCC4)cc3c2C)CC1 | i | >57
Cc1cc(NC(=O)CSc2nnc(-c3cccnc3)n2C)no1 | i | >57
CCOC(=O)C1C(=O)CC(C)(O)C(C(=O)OCC)C1c1cccc(OC(F)(F)C(F)F)c1 (stereo not drawn) | i | >57
CCOc1ccccc1Nc1nnc(SCc2ccc(C(=O)OC)o2)s1 | i | >57
O=C(CSc1ncnc2c1oc1ccccc12)NCC1CCCO1 (stereo not drawn) | i | >57
CC1CN(c2oc(-c3ccco3)nc2C#N)CC(C)O1 (stereo not drawn) | i | >57
O=C(NCc1ccccn1)C1CCN(S(=O)(=O)N2CCCC2)CC1 | i | >57
CCN(CC)S(=O)(=O)c1ccc(C(=O)OCn2nnc3ccccc3c2=O)cc1 | i | >57
COc1ccc2c(=O)cc(-c3ccccc3)oc2c1O | i | /
O=C(CSc1nc(N2CCCCC2)nc(N2CCCCC2)n1)NC1CCCCC1 | i | >57
CC(C)NC(=O)c1cc2c(-c3ccc(Cl)cc3)nn(C)c2s1 | i | /
Cc1c(C#N)c(N)c(C(=O)c2ccccc2)n1Cc1ccccc1 | i | /
COC(=O)[C@@]1(C)C=C[C@@H](Cc2ccccc2)N1C | i | /
Cc1nc2nc(SCC(=O)NCc3ccco3)nn2c(C)c1Cc1c(F)cccc1Cl | i | /
N#Cc1c(/N=C/c2cccs2)sc2c1CCCCC2 | i | 1.1*
Cn1c(SCc2nc(-c3cccs3)no2)nnc1C1CCCCC1 | i | >57
Cn1nc(C(=O)OCC(=O)N2CCc3ccccc32)c2ccccc2c1=O | i | >11
FC(F)(F)c1nnc2ccc(N3CCOCC3)nn12 | i | >57
O=C(c1cnccn1)N1CCC2(CCN(Cc3ccccc3)CC2)CC1 | i | /
CC(Oc1ccc(Cl)cc1)C(=O)Nc1ncccn1 (stereo not drawn) | i | >57
CC(=O)Nc1ccc(S(=O)(=O)N2CCC(NC(C)=O)(c3cccc(F)c3)CC2)cc1 | i | >57
O=C(c1cnn(-c2ccccc2)c1-n1cccc1)N1CCN(C2CCCCC2)CC1 | i | /
CCn1c(=O)cc(N2CCCCC2)[nH]c1=O | i | >57
COc1ccc(-n2c(Cc3cccn3C)nnc2SCC(=O)Nc2ccccc2OC)cc1 | i | /
Cc1ccc(C)c2[nH]c(=O)c(C(c3nnnn3CCc3ccccc3)N3CCOCC3)cc12 (stereo not drawn) | i | >57
COc1cc(NC(=O)CN2CC(c3ccccc3)CC2=O)cc(OC)c1 (stereo not drawn) | i | /
COc1ccc(C)cc1NC(=O)C1CCCN(S(=O)(=O)c2cccc3nonc23)C1 (stereo not drawn) | i | >57
CCCC(c1nnnn1Cc1cccs1)N1CCN(c2nc3ccccc3s2)CC1 (stereo not drawn) | i | >57
CCC1(C(=O)OC)NC(c2ccco2)C2C(=O)N(c3ccccc3)C(=O)C21 (stereo not drawn) | i | >57
COc1cc(-c2csc(C)n2)ccc1O | i | /

In the list so far, these contain two or more sulfur atoms:
SMILES | YjeE inh | PK Bst
Nc1cc(=O)[nH]c(SCCNS(=O)(=O)c2ccccc2)n1 | i | >57
CCCN(S(=O)(=O)c1ccc(OCC)cc1)S(=O)(=O)c1cccs1 | i | >57
CC(C)CCn1c(N)c(S(=O)(=O)c2cccs2)c2nc3ccccc3nc21 | i | >57
CSc1cccc(NC(=O)CSc2nnc(C)s2)c1 | i | >57
O=C(COC(=O)c1ccc(S(=O)(=O)Nc2ccccc2)cc1)NCCN1C(=O)CSC1=O | i | >57
CN/S(=N/S(=O)(=O)c1ccccc1)c1ccc(C)cc1 (stereo not drawn) | i | >57
O=S(=O)(NC1CC1)c1ccc(S(=O)(=O)N2CCCC3(CCCCC3)C2)cc1 | i | >57
CCSc1ccc2c(c1)N(CCCN1CCN(C)CC1)c1ccccc1S2 | i | /
CCOc1ccccc1Nc1nnc(SCc2ccc(C(=O)OC)o2)s1 | i | >57
N#Cc1c(/N=C/c2cccs2)sc2c1CCCCC2 | i | 1.1*
Cn1c(SCc2nc(-c3cccs3)no2)nnc1C1CCCCC1 | i | >57
CCCC(c1nnnn1Cc1cccs1)N1CCN(c2nc3ccccc3s2)CC1 (stereo not drawn) | i | >57

An excerpt, so the mix of outcomes need not match the whole.
